Screens: PubChem BioAssay, several laboratories
HNF4A DNA FP: change in binding of human HNF4A to DNA, primary screen, biochemical, fluorescence polarization, FITC-DNA. Hepatocyte nuclear factor 4-alpha (Homo sapiens), P41235. 1 h. activity change, % at 10 µM. actives 0.3% (n = 360,000). AID 1224865, 2016; in the data active = activity change above about 30%, passing the limit was not always enough;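 also: controls were the assay level and a saturating level of protein; the project sought stronger binding though the title names inhibitors; some compounds called inactive have numbers as strong as hits; positive values seem to mean higher polarization but the record does not say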
Ecoli growth: E. coli growth inhibition, primary screen, OD600 | AID 1053175, 2014 | OD600 absorbance (test concentration not listed) | actives 0.21% (n = 330,000) | Escherichia coli growth, 23 h; stronger effect = lower value;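 active = OD600 absorbance below the run mean of sample wells minus 3.6 SD, in any replicate, cut at about 0.56 in these data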;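 also: stock transfer was 300 nL into about 60 µL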
UCH37 DUB inh: inhibitors of human UCH37 deubiquitinase, primary screen, biochemical, Ub-AMC cleavage, fluorescence | Ubiquitin carboxyl-terminal hydrolase isozyme L5 (Homo sapiens), Q9Y5K5 | purified proteasome/UCH37 | inhibition, % (concentration not given with the values) | actives 0.33% (n = 330,000);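 active = mean of two replicates above 20%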;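 also: 0% = compound-free wells with enzyme and 100% = wells lacking proteasome; stock transfer was 100 nL into about 20 µL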
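System: Proteasome-associated human UCH37 deubiquitinase; Input: 0.15 nM proteasome in added enzyme buffer; Also added: Ub-AMC substrate from 1 µM stock; Incubation: 30 min compound-proteasome preincubation then 25 min substrate reaction, room temperature; Detection: fluorescence, ex 355 nm, em 460 nm; Read-out: % inhibition of Ub-AMC cleavage fluorescence; Benchmarks: no-proteasome and no-compound wells.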
Ecoli rRNA inh: reduced GFP signal of wild-type E. coli, primary screen, bacterial rRNA inhibitor project, GFP/RFP fluorescence, OD600, single point; actives 1.6% (n = 350,000); GFP signal change (wild-type ribosome), % (no concentration beside the values); E. coli WT GFP vs humanized-ribosome RFP mutants, 24 h; stronger effect = lower value; DMSO median 0, no signal -100;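 active = significant combined selectivity score with lowered wild-type GFP, culture density cut under 30%, mutant RFP and density less affected; inactive = any of these conditions unmet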; also: one replicate is shown; some compounds called inactive have numbers as strong as hits
B2AR ag: beta2AR agonists driving receptor internalization, primary screen, cell-based, FAP fluorogen, flow cytometry | Beta-2 adrenergic receptor (Homo sapiens), P07550 | Am2.2-beta2AR cells; reference of the scale not given here | actives 0.43% (n = 340,000) | response, % (test concentration not listed);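 active = response above a set limit, near 3 SD of response in nonfluorescent compounds, cut at about 42% in these data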;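 also: stock transfer was 100 nL into about 11 µL; a reference agonist was the positive control; negative values mostly stem from fluorescent compounds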
Target sequence (P07550 whole entry, looked up): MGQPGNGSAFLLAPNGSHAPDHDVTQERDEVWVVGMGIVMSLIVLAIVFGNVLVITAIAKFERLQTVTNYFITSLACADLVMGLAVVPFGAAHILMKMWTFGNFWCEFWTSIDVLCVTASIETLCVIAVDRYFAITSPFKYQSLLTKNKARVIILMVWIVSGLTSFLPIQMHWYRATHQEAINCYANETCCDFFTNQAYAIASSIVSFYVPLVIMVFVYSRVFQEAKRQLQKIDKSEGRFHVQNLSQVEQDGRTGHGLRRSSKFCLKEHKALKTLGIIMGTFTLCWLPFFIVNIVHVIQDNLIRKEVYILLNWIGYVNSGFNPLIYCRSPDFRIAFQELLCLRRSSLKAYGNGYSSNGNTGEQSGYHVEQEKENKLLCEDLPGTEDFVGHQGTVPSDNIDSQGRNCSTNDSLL
FGF22 binding: binders of human FGF22 protein, primary screen, FGF22 synaptogenesis inhibitor project, biophysical, thermal shift, single point; actives 1.5% (n = 340,000); recombinant FGF22 thermal shift, SYPRO orange fluorescence; percent of sucrose octasulfate shift, DMSO zero; Fibroblast growth factor 22 (Homo sapiens), Q9HCT0; calls only at 9.99 µM; AID 651658, 2012;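 active = melting point raised past a set limit in the mean and every replicate; three in four hits are not shown here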
Target sequence (Q9HCT0 whole entry, looked up): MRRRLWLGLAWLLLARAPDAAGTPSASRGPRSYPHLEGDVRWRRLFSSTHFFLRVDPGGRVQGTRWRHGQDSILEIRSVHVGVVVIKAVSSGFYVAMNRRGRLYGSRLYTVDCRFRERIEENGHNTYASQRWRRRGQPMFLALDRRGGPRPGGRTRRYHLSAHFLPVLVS
ALR inh: inhibitors of human ALR sulfhydryl oxidase, primary screen, biochemical, H2O2 detection, HRP-luminol luminescence, single point; FAD-linked sulfhydryl oxidase ALR (Homo sapiens), P55789; purified ALR, DTT oxidation; inhibition, % (no concentration beside the values); actives 3.8% (n = 290,000); AID 485317, 2010;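 active = mean and each replicate at 75% or more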;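 also: stock transfer was 7.5 nL into about 7.5 µL; 0% = neutral wells and 100% = wells with inactivated enzyme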
Target sequence (P55789 whole entry, looked up): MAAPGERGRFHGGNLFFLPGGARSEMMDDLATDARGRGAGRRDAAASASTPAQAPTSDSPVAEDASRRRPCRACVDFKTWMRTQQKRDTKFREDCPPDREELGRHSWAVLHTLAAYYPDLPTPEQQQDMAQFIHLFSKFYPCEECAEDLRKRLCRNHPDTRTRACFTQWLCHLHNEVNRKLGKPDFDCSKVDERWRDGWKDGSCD
Ecoli rRNA inh OD600: second read-out of Ecoli rRNA inh, no call of its own (marks repeat the call); OD600 change, %; measured here: OD600 growth;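 optical density of the mix in the first replicate; 0 = DMSO median and -100 = no signal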
Ecoli rRNA inh RFP: further read-out of Ecoli rRNA inh, marked with its call; RFP signal change, %; measured here: RFP humanized mutant strains;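 first replicate; 0 = DMSO median and -100 = no signal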
* = called active by the depositor; i = inactive; x = not tested or not shown. A portion of the library, so the mix of outcomes need not match the whole.

SMILES	HNF4A DNA FP	Ecoli growth	UCH37 DUB inh	Ecoli rRNA inh	Ecoli rRNA inh OD600	Ecoli rRNA inh RFP	B2AR ag	FGF22 binding	ALR inh
CCNc1nc(Oc2ccc(=O)n(-c3ccccc3)n2)nc(N(C)C)n1	-0.9	0.71	1.1	x	x	x	-3	x	-2
O=c1c2ccccc2n2nnnc2n1-c1ccccc1	0.1	0.71	0.9	x	x	x	6	x	-1
Cc1ccc(C)c(/C=C(\C(=O)O)c2ccc(S(=O)(=O)N3CCCCC3)s2)c1	4.3	0.7	-0.2	-29	-50	-8.5	11	i	20
CC(=O)Nc1cccc(-c2csc(Nc3ccccn3)n2)c1	1.5	0.64	2.3	x	x	x	1	x	-10
Cc1ccc(NCN2C(=O)c3ccccc3C2=O)cc1Cl	-0.6	x	x	7	7	-0.4	x	i	x
CC(C)C(NS(=O)(=O)c1cccc2nsnc12)C(=O)NCCC1=CCCCC1 (configuration not stated)	-0.2	0.67	6.4	4	-16	1.0	16	i	x
CCOC(=O)c1ccc(NC(=O)COc2ccc(CNCCO)cc2OCC)cc1	1.0	0.66	0.3	-24*	-13*	0.5*	4	i	x
O=C(c1cc(COc2ccc(F)cc2Cl)on1)N1CCN(C2CCCCC2)C(=O)C1	3.6	0.72	1.5	-47	-72	-8.5	-7	i	-3
Cc1nn(C)cc1C(C(=O)NC1CCCCC1)N(Cc1ccccc1Cl)C(=O)c1cnccn1 (configuration not stated)	-1.7	0.69	3.2	10	11	0.3	-3	i	3
C=CCn1c(=O)c(C(=O)Nc2ccccc2C(=O)OCC)c(O)c2ccccc21	-1.2	0.74	-58	x	x	x	6	x	-4
CCNC(=O)/C(C#N)=C/c1c(N2CCN(c3ccccc3)CC2)nc2c(C)cccn2c1=O	-3.1	0.62	3.2	-4	2	4.8	-1	i	2
COC(=O)C1CCN(C(=O)C2CCC(=O)N(CCCc3ccccc3)C2)CC1 (configuration not stated)	-4.5	0.69	0.1	0	0	-1.0	1	i	-2
CC(OC(=O)CN1C(=O)NC2(CCCC2)C1=O)C(=O)c1ccc(C(C)(C)C)cc1 (configuration not stated)	-0.8	0.68	2.7	-4	-13	-1.8	-3	i	-15
COc1ccccc1-c1nn2c(C3COc4ccccc4O3)nnc2s1 (configuration not stated)	-1.4	0.72	1.3	x	x	x	6	x	x
O=c1cc(CN2CCN(c3ccc(Cl)c(Cl)c3)CC2)c2ccccc2o1	-0.7	x	x	-1	-6	0.8	x	i	x
Cc1cc(C)n2ncc(C(=O)NCc3ccccc3)c2n1	6.7	0.7	-53	x	x	x	9	x	1
COc1ccc(CCNC(=O)C2CCCN(S(=O)(=O)c3cc(C)ccc3OC)C2)cc1OC (configuration not stated)	2.3	0.71	-3.1	-4	-8	-3.8	-11	i	-16
O=[N+]([O-])c1ccc(-c2cn3nc(-c4ccccc4)c(-c4ccccc4)nc3n2)cc1	-6.7	0.71	-69	x	x	x	4	i	-6
CSc1ncc(OCc2ccccc2)c(=O)[nH]1	-1.2	0.61	2.6	-3	-4	-3.2	5	i	-11
CC(C)C(=O)Nc1cccc(NC(=S)NC(=O)c2ccc([N+](=O)[O-])cc2)c1	-1.0	0.69	7.1	x	x	x	-9	x	-3
CC(Sc1ccccc1)C(=O)N/N=C/c1cccnc1 (configuration not stated)	3.6	x	x	-2	-29	-6.5	-6	i	x
CC(Oc1ccc(Cl)cc1)C(=O)Nc1ccccc1N1CCOCC1 (configuration not stated)	4.3	0.72	4.1	-26	-69	-9.4	-7	i	-2
CCc1ccc(NC(=O)C2CCCN(S(=O)(=O)c3ccc4c(c3)CCCN4C(C)=O)C2)cc1 (configuration not stated)	-1.9	0.67	4.6	5	-28	-0.3	-7	i	-3
Cc1ccc(N2C(=O)C3CCC(C)(C2=O)C3(C)C)cc1 (configuration not stated)	1.7	0.69	2.3	5	2	-2.1	-1	i	x
O=C(O)CCN1C(=O)/C(=C2\C(=O)N(Cc3ccccc3Cl)c3ccccc32)SC1=S	-2.5	x	x	7	7	-1.1	8	i	-12
Cc1ccc(C(=O)n2c(-c3ccccc3)cnc2SCC(=O)Nc2ccc(C)cc2C)cc1	-3.1	0.76	1.3	-54	-79	-25	17	i	x
COc1ccc2[nH]c(=O)c(CN(C(=O)COc3ccccc3)C(C)C)cc2c1	-3.5	0.71	-66	x	x	x	-3	x	-3
Cc1ccnc(SCc2ccc(C(=O)O)cc2)n1	69*	x	x	11	-3	0.1	4	i	1
Cc1noc(C)c1CCC(=O)NC1CCCN(Cc2ccc(CC(C)C)cc2)C1 (configuration not stated)	17	0.67	-3.6	2	-2	4.6	-5	i	-2
COc1ccc(-c2cn3cc(Cl)ccc3n2)cc1OC	-0.2	0.64	-261	-27*	-11*	0.8*	-7	i	49
CCCCC(C)n1[nH]c(=O)cc1N (configuration not stated)	-2.4	0.71	0.9	x	x	x	-2	x	x
Cc1cnc(C(=O)Nc2ccc(C(=O)N3CCCCC3)cc2)cn1	0.2	0.74	2.1	x	x	x	3	x	100*
CC1(C(=O)NS(=O)(=O)C2CC2)CCN(C(=O)c2ccc(F)c(Cl)c2)C1 (configuration not stated)	0.3	x	x	6	14	-2.3	x	i	x
CC1Sc2ccccc2N(Cc2ccccc2)C1=O (configuration not stated)	3.7	x	x	-7	-1	-0.8	x	i	x
COc1ccc(S(=O)(=O)N2CCCOC2CNC(=O)C(=O)NCc2ccncc2)cc1 (configuration not stated)	-1.8	0.71	0.3	8	5	-0.1	-18	i	2
CCOc1ccc(S(=O)(=O)Nc2nc3ccccc3nc2-n2ccc(=NC(=O)c3cccs3)cc2)cc1	28	0.72	-5.5	14	15	1.3	-1	x	-12
Cc1cc(Br)ccc1Nc1nc(N)nc(N)c1N=O	-2.0	0.66	6.9	38	1	16	12	i	x
Cn1c(CO)cnc1S(=O)(=O)Cc1ccc(Cl)cc1	2.5	0.65	-0.6	10	6	3.4	-10	i	0
Cc1cc2nccc(-c3ccco3)n2n1	-0.5	0.63	-3.8	x	x	x	-1	x	-3
O=C(N/N=C/c1ccncc1)c1cc([N+](=O)[O-])cc([N+](=O)[O-])c1O	-1.9	x	x	x	x	x	-5	x	0
O=C(NCc1ccco1)c1cnn2c1NC(c1ccccc1)CC2C(F)(F)F (configuration not stated)	4.3	0.69	-1.5	x	x	x	-5	x	-3
C=CCn1c(O)c(N=NC(=O)C(O)c2ccccc2)c2ccccc21 (configuration not stated)	0.5	0.69	4.9	1	-5	-0.8	-13	i	-5
CC(=O)Nc1cccc(Oc2nc(NCCN(C)C)nc3ccsc23)c1	6.9	x	x	6	16	-1.6	x	i	x
Cc1nnnn1/C(=C\c1ccccc1)C(=O)OCC(=O)N(C)C1CCS(=O)(=O)C1 (configuration not stated)	0.1	0.64	2.6	x	x	x	0	x	3
Cc1cc(NS(=O)(=O)c2ccc(NC(=O)CCCOc3ccccc3)cc2)no1	1.9	0.72	0.4	x	x	x	-2	x	40
CN(C(=O)c1cccc(NC(=O)Cc2cccc(NC(=O)C3CCCN(C(=O)C4CCC4)C3)c2)c1)C1CCC1 (configuration not stated)	1.7	x	x	-5	-4	1.0	-15	i	x
O=C(NC1CCCCC1)C(c1ccco1)N(Cc1cccnc1)C(=O)C1COc2ccccc2O1 (configuration not stated)	1.4	0.73	0.0	x	x	x	1	x	-3
CCCc1cnc(Nc2nc(C(N)Cc3ccc(OC)cc3)cs2)nc1 (configuration not stated)	-1.2	x	x	-57	-80	-18	x	i	x
COC(=O)c1c(NC(=O)CN2C(=O)NC(CCc3ccccc3)C2=O)sc2c1CCCCC2 (configuration not stated)	-4.2	0.7	1.6	x	x	x	1	x	x
CC12CCC(C/C1=N/O)C2(C)C (configuration not stated)	1.9	x	x	-2	6	1.2	2	i	5
COc1ccc(-c2cc(C(=O)Nc3c(C)n(C)n(-c4ccccc4)c3=O)no2)cc1	-2.2	0.67	-0.6	-4	-4	-2.0	7	i	0
CCCn1c(=O)c(C(=O)NCc2ccc(OC)c(OC)c2)c(O)c2ccccc21	0.3	0.73	3.9	x	x	x	1	x	x
CCOC(=O)C1=C(COc2ccccc2)NC(=O)NC1c1ccc(Br)cc1 (configuration not stated)	1.0	0.69	2.8	-2	-9	-2.0	0	i	1
Cc1ccc(NC(=O)N2CCOCC2)cc1NC(=O)N1CCOCC1	3.5	x	x	9	16	-1.1	x	i	x
Cc1nc(C(F)(F)F)c(C(=O)O)cc1-c1nc(-c2ccccc2)cs1	1.6	0.66	-27	-18	-13	-4.7	0	i	95*
CCN(C(=O)c1c(-c2ccccc2)noc1C)c1ccccc1	2.2	0.71	5.7	x	x	x	4	x	x
c1cc(-c2nnc3sc(C4CCCCC4)nn23)ccn1	-2.4	0.67	4.9	x	x	x	-10	x	-1
O=C(N/N=C(\Cc1ncc[nH]1)c1ccccc1)c1cccnc1	0.5	x	x	-18	-19	-3.6	-1	i	-9
Nc1cc(C(=O)OCC(=O)N2CCOCC2)ccc1Cl	-0.1	0.66	-27	13	4	1.6	-1	i	-12
CS(=O)(=O)N(CC(=O)Nc1ccccc1Cl)c1ccc(Cl)cc1	1.9	0.67	4.2	-16	-15	-2.9	2	i	-14

The list continues.
SMILES	HNF4A DNA FP	Ecoli growth	UCH37 DUB inh	Ecoli rRNA inh	Ecoli rRNA inh OD600	Ecoli rRNA inh RFP	B2AR ag	FGF22 binding	ALR inh
COC(=O)c1ccsc1NC(=O)c1ccc(Cl)s1	-0.6	0.76	-47	1	-4	-8.6	3	i	-1
Cc1ccc(NC(NC(=O)c2cccs2)C(Cl)(Cl)Cl)cc1C (configuration not stated)	-0.5	0.71	4.0	x	x	x	-4	x	67
Cc1ncoc1C(=O)Nc1cccc(Cl)c1C	-0.3	0.67	4.5	x	x	x	-1	x	-4
O=C(COc1ccc(Br)cc1Cl)NC(=O)NCc1ccccc1	0.4	0.66	2.1	7	1	-2.5	-5	i	-2
CCOC(=O)N=Nc1c(O)n(C)c2ccccc12	-0.8	0.62	5.1	x	x	x	-22	i	x

One compound at a time, as listed above. Order of screens: HNF4A DNA FP | Ecoli growth | UCH37 DUB inh | Ecoli rRNA inh | Ecoli rRNA inh OD600 | Ecoli rRNA inh RFP | B2AR ag | FGF22 binding | ALR inh
`Cc1ccc(N2C(=O)C3CCC(C)(C2=O)C3(C)C)cc1` (configuration not stated) is entered as 1.7 | 0.69 | 2.3 | 5 | 2 | -2.1 | -1 | i | x
`CCOC(=O)c1ccc(NC(=O)COc2ccc(CNCCO)cc2OCC)cc1` is entered as 1.0 | 0.66 | 0.3 | -24* | -13* | 0.5* | 4 | i | x
`Cn1c(CO)cnc1S(=O)(=O)Cc1ccc(Cl)cc1` is entered as 2.5 | 0.65 | -0.6 | 10 | 6 | 3.4 | -10 | i | 0
`CC12CCC(C/C1=N/O)C2(C)C` (configuration not stated) is entered as 1.9 | x | x | -2 | 6 | 1.2 | 2 | i | 5
`COc1ccccc1-c1nn2c(C3COc4ccccc4O3)nnc2s1` (configuration not stated) is entered as -1.4 | 0.72 | 1.3 | x | x | x | 6 | x | x
